Screening results: PubChem, Johns Hopkins Ion Channel Center
KCNQ2 inh: KCNQ2 potassium channel inhibitors, primary screen, cell-based, CHO-K1, FluxOR thallium flux, B-score (AID 2156); B-score at 10 µM; 20 min; hits give low values; only compounds with negative scores are shown here; some inactives read as strong as hits; 310,000 tested, 1.1% active;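 active = fluorescence ratio B-score at most minus 3 library SDs, with starting brightness B-score within 2 library SDs, cut at about -5.5 in these data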
Target sequence (O88943 whole entry, looked up): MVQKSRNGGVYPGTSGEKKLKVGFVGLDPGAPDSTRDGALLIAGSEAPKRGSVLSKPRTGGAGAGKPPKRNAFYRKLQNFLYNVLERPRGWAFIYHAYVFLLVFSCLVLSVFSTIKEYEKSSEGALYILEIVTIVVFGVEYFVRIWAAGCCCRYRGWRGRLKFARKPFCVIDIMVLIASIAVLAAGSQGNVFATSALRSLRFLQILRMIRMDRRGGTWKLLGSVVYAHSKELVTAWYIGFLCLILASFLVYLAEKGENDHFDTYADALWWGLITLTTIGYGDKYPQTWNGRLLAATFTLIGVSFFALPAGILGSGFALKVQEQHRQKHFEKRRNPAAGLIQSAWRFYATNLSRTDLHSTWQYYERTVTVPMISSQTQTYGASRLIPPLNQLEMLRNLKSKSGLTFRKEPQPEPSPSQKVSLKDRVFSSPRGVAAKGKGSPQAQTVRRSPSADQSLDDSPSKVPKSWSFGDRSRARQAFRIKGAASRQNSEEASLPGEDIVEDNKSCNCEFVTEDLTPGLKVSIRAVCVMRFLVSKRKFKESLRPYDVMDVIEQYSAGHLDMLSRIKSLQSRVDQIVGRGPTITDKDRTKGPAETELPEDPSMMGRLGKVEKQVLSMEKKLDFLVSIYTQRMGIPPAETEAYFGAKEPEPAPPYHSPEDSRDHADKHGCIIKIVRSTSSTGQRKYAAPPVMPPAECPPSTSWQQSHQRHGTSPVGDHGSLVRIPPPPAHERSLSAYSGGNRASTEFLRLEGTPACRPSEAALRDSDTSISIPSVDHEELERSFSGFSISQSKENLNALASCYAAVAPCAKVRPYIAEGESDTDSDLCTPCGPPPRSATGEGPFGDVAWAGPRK
KCNQ2 inh baseline: further read-out of KCNQ2 inh, marked with its call; B-score; measured here: initial fluorescence intensity artifact check;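 brightness before thallium and not channel activity; 0 = typical well and far values either way flag optical interference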
Active calls of the source: *; i = inactive. A portion of the library; count on the stated rates, not on these rows.

KCNQ2 inh	KCNQ2 inh baseline	SMILES
i	-0.24	COc1ccc(N2CCN(S(=O)(=O)CCNC(=O)c3ccco3)CC2)cc1
i	2.1	O=c1c2ccccc2nc(-c2cccs2)n1-c1cccc2ccccc12
i	0.95	C=CCOn1c(=O)c(-c2ccc(Br)cc2)[n+]([O-])c2ccccc21
i	2.1	O=C(CSc1nnc(CNC(=O)c2ccccc2)o1)Nc1ccc2c(c1)OCO2
i	-1.3	C#CC1(NC(=O)NC(C)(C)C)CCCCC1
i	-0.3	O=C(CSc1ccccc1C(=O)O)NCc1ccccc1
i	0.57	COc1ccc(CC(=O)NCc2ccccc2)cc1S(=O)(=O)N1CCOCC1
i	0.14	Cc1ccc(-c2c(C(=O)Nc3ccccc3C)c(C)[nH]c(=S)c2C#N)o1
i	1.5	Cc1ccc(C(=O)Nc2ccc(N3CCOCC3)cc2)cc1
i	-0.61	Cc1ccc(-c2nnn(CC(=O)NCc3ccccc3)n2)c(-n2cnnn2)c1
i	0.13	CCCc1cc(=O)n2[nH]c(NCc3c(Cl)cccc3Cl)nc2n1
i	9.8	COc1ccc(NC(=O)CSc2cn[nH]n2)cc1OC
i	0.59	O=C(CN(Cc1ccccc1F)S(=O)(=O)c1ccc(Cl)cc1)NCC1CCCO1 (stereo not given)
i	1.1	COc1cc(Cn2c(=O)c3c(OC)c(C)cnc3n(C)c2=O)cc(OC)c1
i	0.33	COC(=O)CCNCCSc1nnc(-c2ccco2)n1Cc1ccccc1
i	0.85	Cc1cc([N+](=O)[O-])nn1CCCC(=O)Nc1c(C)n(C)n(-c2ccccc2)c1=O
i	0.08	CN(C)c1ccc(C(C(=O)NCc2ccccc2)N(Cc2cccnc2)C(=O)c2snc(C(N)=O)c2N)cc1 (stereo not given)
i	1.2	Cn1nc(C(C)(C)C)cc1C(=O)O
i	-0.55	COC(=O)c1sc(C(C)(C)C)cc1CS(=O)(=O)c1ccc(Cl)cc1
i	2.7	O=C(CSc1nnc2ccccn12)NNC(=O)c1ccc([N+](=O)[O-])cc1
i	-0.05	CCN(CC(=O)Nc1ccccc1Br)C1CCCCC1
i	0.23	O=C(CCCn1c(SCC(=O)c2ccc(F)cc2)nc2ccccc2c1=O)NCc1ccco1
i	0.96	Cc1nn(CC(=O)N2CCC(N3CCCCC3)CC2)c(=O)c2c1sc1ccccc12
i	0.26	CCN(CC)S(=O)(=O)c1cccc(-c2nnc(SCC(N)=O)n2N)c1
i	0.15	O=C(c1cccc(COCC(F)(F)C(F)F)c1)N1CCN(c2ccccc2)CC1
i	-1.1	Cc1nc(SCC(=O)c2ccc(F)c(F)c2)[nH]c(=O)c1Oc1ccc(F)cc1
i	2.6	CCOc1ccc(C2C(C#N)=C(N)N3C(=C2C#N)Sc2ccccc23)cc1 (stereo not given)
i	-0.93	COCCn1c(-c2ccc(OC)cc2)cnc1SCC(=O)Nc1cccc2ccccc12
i	-0.27	O=C(NC(=S)NCc1nc2ccccc2[nH]1)c1ccc(F)cc1
i	-0.68	CCOC(=O)c1c(S(=O)(=O)N2CCCC(C(=O)Nc3ncccc3C)C2)c(C)n(C)c1C (stereo not given)

Whole records, quoted from the list. Order of values: KCNQ2 inh | KCNQ2 inh baseline
Results for CCOc1ccc(C2C(C#N)=C(N)N3C(=C2C#N)Sc2ccccc23)cc1 (stereo not given) = i | 2.6
Results for CCOC(=O)c1c(S(=O)(=O)N2CCCC(C(=O)Nc3ncccc3C)C2)c(C)n(C)c1C (stereo not given) = i | -0.68
Results for CCCc1cc(=O)n2[nH]c(NCc3c(Cl)cccc3Cl)nc2n1 = i | 0.13
Results for COC(=O)CCNCCSc1nnc(-c2ccco2)n1Cc1ccccc1 = i | 0.33
Results for COc1cc(Cn2c(=O)c3c(OC)c(C)cnc3n(C)c2=O)cc(OC)c1 = i | 1.1

Quoted from the listing:
KCNQ2 inh baseline result of `O=C(CCCn1c(SCC(=O)c2ccc(F)cc2)nc2ccccc2c1=O)NCc1ccco1` → 0.23
KCNQ2 inh baseline result of `CN(C)c1ccc(C(C(=O)NCc2ccccc2)N(Cc2cccnc2)C(=O)c2snc(C(N)=O)c2N)cc1` (stereo not given) → 0.08

Arranged by formula weight (falling): some entries from above
KCNQ2 inh	KCNQ2 inh baseline	SMILES
i	0.23	O=C(CCCn1c(SCC(=O)c2ccc(F)cc2)nc2ccccc2c1=O)NCc1ccco1
i	-0.68	CCOC(=O)c1c(S(=O)(=O)N2CCCC(C(=O)Nc3ncccc3C)C2)c(C)n(C)c1C (stereo not given)
i	-0.05	CCN(CC(=O)Nc1ccccc1Br)C1CCCCC1
i	-0.3	O=C(CSc1ccccc1C(=O)O)NCc1ccccc1

Next structures follow.
KCNQ2 inh	KCNQ2 inh baseline	SMILES
i	-0.65	Cc1cccc2sc(N(CCCN(C)C)C(=O)c3ccc4ncsc4c3)nc12
i	0.35	Cc1cccc(SCC(=O)Nc2ccccc2[N+](=O)[O-])c1
i	0.83	O=C(CSc1nc2ccccc2[nH]1)Nc1c(F)c(F)c(F)c(F)c1F
i	-0.03	N=c1c(S(=O)(=O)c2ccc(F)cc2)cc2c(=O)n3ccccc3nc2n1CC1CCCO1 (stereo not given)
i	0.04	Nc1ccc(C#Cc2ccc3oc4ccccc4c(=O)c3c2)cc1
i	-0.43	O=C1NCCN1Cc1ccccc1
-9*	1.1*	Cc1cccc(-n2nc3c(c2NC(=O)c2ccc(Br)o2)CSC3)c1
i	0.07	CCCNc1c(N)n(-c2ccccc2)c(=O)[nH]c1=O
i	-0.28	CCOc1ccc(NC(=S)Nc2ccc(Br)cc2Cl)cc1
i	0.43	COc1ccc2c(c1)CCC(C)N2C(=O)C(=O)c1c[nH]c2ccccc12 (stereo not given)
i	0.03	CCCc1nnc(NC(=O)CN2CCOCC2)s1
i	-0.08	CC(C)c1ccc(NC(=O)c2sccc2-n2cccc2)cc1
i	1.1	NC(=O)c1coc(-c2ccccc2)n1
i	-0.07	COc1ccc(NC(C)=O)cc1CNC(=O)COc1c(C)c(C)cc(C)c1C
i	-1.3	Cc1sc2ncn(CC(=O)NCc3ccco3)c(=O)c2c1-c1ccccc1
i	-0.22	O=C(N/N=C/c1cccnc1)c1cc(-c2ccccc2OCc2ccccc2)n[nH]1
i	0.41	O=C(NCCc1ccccc1)c1coc(=O)c(Br)c1
i	-0.39	CCNC(=S)N(Cc1ccc(OC)cc1)C1CC(=O)N(c2ccc(OCC)cc2)C1=O (stereo not given)
i	2.2	O=Cc1ccccc1OCc1nnsc1Cl
i	-0.23	O=C1NC(c2ccccc2)=C(c2ccc3ccccc3n2)C(c2ccccc2)N1 (stereo not given)
i	2.1	CCCn1nnc(NC(=O)c2ccc3ccccc3c2)n1
i	-1.4	Cn1cc(Cl)c(/C=C(\C#N)S(=O)(=O)c2ccccc2)n1
i	-0.69	Cc1cc(OCC(=O)NCCCN2CCOCC2)c2c(C)cc(=O)oc2c1
i	1.1	COc1ccc(/C(O)=C2/C(=O)C(=O)N(CCCC(=O)O)C2c2ccc(OC)c(OC)c2)cc1 (stereo not given)
i	0.26	Cc1ccc(CNC(=O)C2CCC(=O)N2CCc2ccccc2)cc1 (stereo not given)
i	-0.68	Cc1cccc(Nc2nc(N)nc(CN3CCN(Cc4ccc5c(c4)OCO5)CC3)n2)c1
i	-1.4	CC(C(=O)Nc1ccccc1Sc1ccccc1)N(c1ccccc1)S(C)(=O)=O (stereo not given)
i	-1.9	COc1ccc(C2CC(=O)Oc3c(C(CCN4CCCC(C)C4)c4ccc(N(C)C)cc4)c(OC)cc(OC)c32)cc1 (stereo not given)
i	-1.9	Cc1ccc(C(=O)Nc2ccccc2N2CCN(C(=O)C(C)C)CC2)cc1C
i	0.45	C#CCN(C)CCCOc1ccc(Cl)cc1Cl
i	-0.16	Cc1ccc(-c2cnc(NC(=O)CCC(=O)N3CCCCC3)n2C)cc1
i	-0.63	CC(NC(=O)c1cc(F)c(F)cc1Cl)C1CC2CCC1C2 (stereo not given)
i	2.8	O=C(Cc1cccs1)N/N=C/c1ccc(OCc2ccccc2)cc1
i	0.92	O=C(c1ccco1)N1CCN(c2c(-c3ccccc3)c3cc(Cl)ccc3[nH]c2=O)CC1
i	0.71	O=C(c1ccc2ccccc2n1)N1CCN(c2ccccc2O)CC1
i	0.68	COc1ccc(CN(Cc2cc3cccc(C)c3n3nnnc23)C(=O)N2CCOCC2)cc1
i	-1.3	CC(=O)c1ccc(NS(=O)(=O)c2ccc3c(c2)N(C(C)=O)CCO3)cc1
i	-1.6	CN1C(=O)/C(=C/c2ccc3c(c2)OCO3)N=C1c1ccccc1
i	0.3	C=CCNC(=S)NNC(=O)c1ccc(Br)cc1
i	-0.02	COc1ccc(C2C(C(=O)Nc3cccnc3)=C(C)Nc3nc(-c4cccs4)nn32)cc1OC (stereo not given)
i	-0.16	CCOCc1cc(CN2CCC(n3nccc3NC(=O)C3CC3)CC2)ccc1OC
i	0.29	COc1ccc(OC)c(Nc2nc(NCCO)c3ccccc3n2)c1
i	0.25	O=[N+]([O-])c1ccn(-c2nc(-c3ccccc3)cc(C(F)(F)F)n2)n1
i	-0.69	O=C1[C@@H]2Cc3ccccc3CN2C(=O)N1c1cccc(F)c1
i	2.2	C/C(=N\NS(C)(=O)=O)c1ccccc1
i	2.2	Cc1ccc(/C=N\NC(=O)Cn2c(C)nc3ccccc32)o1
-10*	0.63*	Cc1cc(C)c(C(=O)COC(=O)C2CCN(c3ccc(C(F)(F)F)cn3)CC2)cc1C
i	-1.1	COc1ccc(C2(c3ccc(OC)cc3)NC(=O)N(CC(=O)NCC(F)(F)F)C2=O)cc1
i	1.3	CC(C)N1CCN(Cc2cccc(-n3cccn3)c2)CC1CCO (stereo not given)
i	0.06	Cn1nc(C(=O)Nc2ccc3c(c2)OCCO3)cc1C(=O)O
i	0.44	CCCC(=O)NC(c1ccccc1)c1c(O)ccc2ccccc12 (stereo not given)
i	-0.95	COc1ccc(-n2nc(C(=O)NCC(=O)NC3CCCC(C)C3C)c3ccccc3c2=O)c(OC)c1 (stereo not given)
i	-0.24	O=S1(=O)CCOCCCN1Cc1ccccc1Br
i	2.3	COc1ccccc1/C=C1\Cc2ccccc2C1=O
i	-0.22	COc1ccc(S(=O)(=O)c2c(O)c3ccc(C(=O)Nc4cccc(F)c4)cc3[nH]c2=O)cc1
i	-0.55	O=C(CNC(=O)c1ccccc1)NCCc1ccc(O)c(O)c1
i	-0.86	CN(CCc1ccccn1)C(=S)NC(=O)c1ccco1
i	-1.9	Cc1ccc(COC(=O)c2ccc3ccccc3n2)cc1
i	-0.89	NNc1nc2sc3c(c2c(=O)n1-c1ccccc1)CCCC3
i	0.91	COc1ccc(Br)cc1CN1CCN(Cc2c[nH]c3ccccc23)CC1

Next part:
KCNQ2 inh	KCNQ2 inh baseline	SMILES
i	2.4	COc1cccc(Cn2nnc(C(=O)NCc3ccccc3Cl)c2N)c1
i	1.5	CCS(=O)(=O)NCc1csc(-c2ccccc2)n1
i	-0.19	Cc1ccc2c(c1)NCC(C(=O)NC1CCCCC1)O2 (stereo not given)
i	0.46	CCCCCCCN=CC1=C(O)CC(c2ccccc2)CC1=O (stereo not given)
i	2.4	O=C(CNS(=O)(=O)c1ccc(F)c(Cl)c1)NCCc1ccccc1
i	-1.2	CC1(C(=O)Nc2cccc(S(=O)(=O)N3CCOCC3)c2)Cc2ccccc2C(=O)O1 (stereo not given)
i	1.4	CCN(CC(=O)NCc1ccc(F)cc1)CC(=O)Nc1ccc(S(=O)(=O)N2CCCC2)cc1
i	-0.71	O=c1cc(CSc2nc(NCc3ccccc3)c3ccccc3n2)nc2ccc(Cl)cn12
i	-0.28	Cc1onc(-c2ccccc2)c1C(=O)Nc1nnc(C(C)C)s1
i	3.7	CCn1cc(C(=O)N2CCCC2)c(=O)c2cc(S(=O)(=O)N3CC(C)CC(C)C3)ccc21 (stereo not given)
i	-1.1	CC(=O)c1c(Nc2ccccc2)sc(C(=O)c2ccccc2)c1C
i	0.08	CCN(CC(=O)NCc1cccs1)C(=O)c1cccc(S(=O)(=O)Nc2ccccc2Cl)c1
i	1.5	CC1CCN(C(=O)Cn2c(=O)n(-c3ccc(F)cc3)c(=O)c3sccc32)CC1
i	0.3	COc1ccc(N2C(=O)c3ccc(C(=O)Nc4ccc(NC(C)=O)cc4)cc3C2=O)cc1
i	0.17	CC(C)(C)c1ccc(C(=O)Nc2ccccc2Cl)cc1
i	2.4	COc1ccc(Cl)cc1Nc1nc(-c2sc(NC(=O)CC(C)C)nc2C)cs1
i	-0.03	O=[N+]([O-])c1ccccc1S(=O)(=O)Nc1ccc(-c2ccc(N3CCCC3)nn2)cc1
i	-0.04	COc1ccc(NS(=O)(=O)c2ccc3[nH]c(=O)[nH]c3c2)cc1
i	-0.51	Cc1cc(C)c2c(c1)-c1c(ssc1=S)C(C)(C)N2C(=O)CN1C(=O)c2ccccc2C1=O
i	0.8	COCCNc1nc(-c2cc(-c3ccccc3)on2)cc(C(C)C)n1
i	0.71	COc1ccc(CN2CCN(Cc3nc4ccccc4s3)CC2CCO)c(C)c1C (stereo not given)
i	0.01	COc1ccc(C2CC(c3cc(Br)ccc3F)n3nnnc3N2)cc1 (stereo not given)
i	0.22	CCNC(=O)CSc1nnc(-c2cccc(S(=O)(=O)N(CC)CC)c2)n1CCc1ccccc1
i	0.04	Cc1ccc(S(=O)(=O)N(C)CC(=O)O/N=C(\N)c2cccc([N+](=O)[O-])c2)cc1
i	-2.4	CC(C)C1N(c2ccccc2)C(N)=C(C#N)C1(C#N)C#N (stereo not given)
i	1.7	O=C(c1ccc2c(c1)N(Cc1ccccc1F)C(=O)c1ccccc1S2)N1CCOCC1
i	1.7	COc1ccc(-n2ncc3c2CC(C)(C)CC3NC(=O)c2cn[nH]c2)cc1 (stereo not given)
